Screens: PubChem, National Center for Advancing Translational Sciences (NCATS)
Vaccinia mCherry: inhibitors of vaccinia virus infection (mCherry reporter signal); AID 720579; Potency, µM (highest dose often 36.5 µM), inactives show top-dose activity change, negative = inhibition, actives largely listed as inhibitors; Vaccinia virus mCherry reporter infection, fluorescence; about a quarter of the inactives have no number; 0.63% of 310,000 active; active = well fitted inhibition curve with a large enough effect; inconclusive = small, poorly fitted or top-dose-only effect; inactive = no such curve, though single readings can be large or run the other way; tested in A549 cells; further: nearly all actives have a fitted effect of over 35% in size; inactives centre near -10
VACV Venus inh: vaccinia inhibition (Venus reporter); Vaccinia virus Venus reporter expression, fluorescence; Potency, µM (top dose mostly 36.5 µM), inactives show at the highest dose activity change, negative = inhibition, hits mostly inhibitors; 0.46% of 330,000 active; active means well fitted inhibition curve with a large enough effect; inconclusive means small, poorly fitted or top-dose-only effect; inactive means no such curve, though single readings can be large or run the other way; tested in A549 cells; further: nearly all actives have a fitted effect of over 30% in size; inactives centre near -10
Starred values were filed as active, the others as inactive; i = inactive; ? = inconclusive; nt = not tested or not shown; & = joins results of further samples; [ ] = dose if it differs, or a comment. On the % scale 0 is the no-effect control and ±100 the full control effect; potency means the concentration at half of the fitted maximal effect.

SMILES | Vaccinia mCherry | VACV Venus inh
O=C(N=NC(=O)c1ccco1)c1ccc2c(O)n(N3C(=O)c4ccccc4C3=O)c(O)c2c1 | -21% | -6%
Cc1ccc(NC(=O)c2c3c(nc4ccccc24)CCC3)cc1S(=O)(=O)N(C)C | i | -13%
COc1ccc(-c2nc(SCC(=O)Nc3ccc4c(c3)OCO4)c(-c3ccccc3)[nH]2)cc1 | ? | ?
CC(C)C[C@H](NC(=O)NCCC1=CCCCC1)C(=O)O | i | 0%
O=C(CCNC(=O)N1CC(=O)Nc2ccccc21)Nc1cccc(Cl)c1 | -2% | -3%
C=C1C=C(C)n2ncc(C(=O)Nc3ccc(F)cc3F)c2N1 | -14% | -8%
COc1cc(NC(=O)Cn2nc(-c3ccc(F)cc3)ccc2=O)ccc1-n1cnnn1 | -10% | -3%
CC(=O)Nc1ccccc1/C=C/c1ccc2c(C)cc(C)c(O)c2n1 | -9% | 8%
Cc1cccc(NCN2C(=O)C3C4C=CC(C4)C3C2=O)c1 (stereo not drawn) | -14% | -6%
COc1ccc(C(=O)Nc2ccc(Cl)cc2C(=O)N2CCCC(C)C2)cc1 (stereo not drawn) | nt | 0%
Cc1ccc(S(=O)(=O)N2CCN(c3nccnc3C#N)CC2)cc1 | -4% | ?
COc1ccc(CC(NC(C)=O)C(=O)NC2CCN(C(=O)c3ccc(Cl)cc3)CC2)cc1 (stereo not drawn) | -19% | -9%
CCN(c1ccc(NC(=O)COC(=O)c2cccs2)cc1)C(C)C | -8% | -5%
Cc1ccc(C)c(N(CC(=O)NC(C)C)C(=O)CCC(=O)Nc2ccccn2)c1 | -10% | -8%
COc1cc2nc(N(C)C)c(CNCCc3c[nH]c4ccccc34)cc2c(OC)c1OC | -10% | 2%
O=C(Nc1ccc2c(c1)CCO2)Nc1nnc([C@H]2C[C@H](O)[C@@H](CO)O2)s1 | i | -15%
COCCCNC(=O)CCc1nc2cccnc2n1Cc1ccc(OC)cc1 | -9% | 0%
COc1ccc(-n2nc(C(=O)NCC(=O)Nc3cccc(Cl)c3)c3ccccc3c2=O)cc1 | -12% | 3%
CCOC(=O)C1(Cc2ccccc2)CCCCCC1=O (stereo not drawn) | i | -17%
CS(=O)(=O)N1CCCCC1CCN1CCCCC1 (stereo not drawn) | -12% | -8%
COc1ccc(CNC(=O)CCNS(=O)(=O)c2ccc(C)cc2)cc1 | i | -7%
Clc1cccc(Cc2c(-c3cccc(Cl)c3)nc3ccc(Br)cn23)c1 | i | -1%
CC(=O)N1CCCC1c1nc2ccccc2n1Cc1cccc(C)c1 (stereo not drawn) | -10% | 0%
CC(=O)C(Cc1ccccc1)NC(=O)CN(C)Cc1ccccc1Cl (stereo not drawn) | -12% | -9%
CCOc1ccccc1OCCCC(=O)N(CC)CC(=O)Nc1c(F)cccc1F | -21% | -18%
COc1cc(NC(=O)COC(=O)c2n[nH]c3ccccc23)c(C)cc1[N+](=O)[O-] | i | -8%
Cc1ccc(N2C(N)=C(C#N)C(c3cc(CN4CCOCC4)cs3)C3=C2CC(C)(C)CC3=O)cc1 (stereo not drawn) | -21% | -3%
CC(C)c1ccc(N(CC(=O)NC2CCCCC2)C(=O)CNC(=O)c2ccco2)cc1 | -14% | -9%
Cc1ccc(C(=O)NCCNS(=O)(=O)c2ccccc2)cn1 | -10% | -8%
CC(=O)C1=C(O)C(=O)N(CCCn2ccnc2)C1c1ccc(Cl)cc1 (stereo not drawn) | i | 1%
CCC(=O)N1CCc2cc(Br)cc(S(=O)(=O)CCC(=O)NCC3CCCO3)c21 (stereo not drawn) | -15% | -2%
CN(C(=O)CSc1ccccc1C(=O)O)C1CCCCC1 | -10% | -8%
O=C(Nc1nnc(-c2cccs2)o1)c1cc(-c2ccccc2)nc2ccccc12 | ? | -25%
Cc1ccc(NS(=O)(=O)N2CCOCC2)cc1 | i | -1%
CCCCN(Cc1ccc(C(=O)N[C@H](C(=O)O)C(C)C)cc1)C(=O)C(c1ccccc1)c1ccccc1 | i | -4%
CC(C)(C)C(=O)Nc1cc(NC(=O)C(C)(C)C)cc(C(=O)Nc2c[nH]c(=O)[nH]c2=O)c1 | i | 0%
O=C1C=C(O)c2ccccc2C1=O | -9% | 2%
CCNC(=O)Oc1ccc[nH]c1=O | i | -1%
Cc1cccc(CNC(=O)c2cnc3sc(N4CCCCC4)nn3c2=O)c1 | -15% | -18%
COCCNc1ccc(N2C(=O)C3CCCCC3C2=O)cc1[N+](=O)[O-] (stereo not drawn) | i | -3%
Cc1cc(Nc2ccccc2)nc(NCc2ccccc2)n1 | -31% | ?
O=c1c2ccccc2nc(-c2ccco2)n1-c1ccccn1 | nt | -27%
COC(=O)N/N=C\c1ccccc1OC/C=C/c1ccccc1 | i | -4%
O=C(CC(=O)Nc1ccc(Cl)cc1)N/N=C\c1cccc(F)c1 | 16% | 6%
Cc1ccccc1C(=O)NC1CCN(CC(=O)NC2CCCCC2)CC1 | -8% | -8%
CCN(CC)CCCNC(=O)Cn1nc(C)n2c(cc3sccc32)c1=O | -2% | -11%
Cc1ccccc1NS(=O)(=O)c1ccc(C(=O)NNC(=O)c2ccccc2O)cc1 | ? | ?
COC(=O)c1c(-c2cccs2)csc1NC(=O)CN1CCOCC1 | nt | ?
COc1cc(NC(=O)CN2C(=O)CCc3cc(Br)ccc32)cc(OC)c1OC | 0% | 5%
COc1ccc(-n2c(CCNC(=O)c3ccccc3C(F)(F)F)nnc2SC)cc1 | 2% | 22%
Cc1ccc(N2C(N)=C(C#N)C(c3ccsc3)C3=C2CC(C)(C)CC3=O)cc1 (stereo not drawn) | -23%[1.46 µM] | -23%
COCc1[nH]c(=S)[nH]c(=O)c1C | -14% | -13%
Cc1ccccc1NC(=O)Cc1nnc(NC(=O)Nc2ccccc2F)s1 | 4%[7.34 µM] | -23%[7.34 µM]
c1cncc(CSc2nnc3ccc(-c4ccco4)nn23)c1 | i[7.34 µM] | 0%[7.34 µM]
Cc1ccc(C(=O)O)cc1NC(=S)NC(=O)Cc1ccccc1 | -14% | -8%
Cc1ccc(OC(=O)c2ccc3snnc3c2)cc1 | i | -13%
COc1ccc(OC)c(CN2C[C@H](Sc3ccc(F)cc3)C[C@H]2C(=O)N(C)C)c1 | -18% | -11%
CC(C)(C)c1ccccc1OCC(=O)Nc1ccccc1C(=O)NCc1cccnc1 | -23% | -21%
CCN1CCC(Nc2ccnc3cc(Cl)ccc23)CC1 | -5% | -7%
CC(=O)N/N=C/c1c(C)[nH]n(-c2ccccc2)c1=O | i | 8%
(cont.)
SMILES | Vaccinia mCherry | VACV Venus inh
O=S(=O)(NCc1cn2ccccc2n1)c1cc(F)ccc1F | nt | -6%
CC1=NNC(=O)C1Cc1ccccc1C (stereo not drawn) | -8% | -12%
CCCC(=O)N(CCN1CCOCC1)c1nc2cc(C)c(C)cc2s1 | i | -11%
CCOC(=O)c1cnn(-c2nc(OCC)cc(OCC)n2)c1C | -24% | -18%
Cc1cccc(C(=O)NC(=O)Nc2ccc(-c3cc(C(F)(F)F)nn3-c3ccccc3)cc2)c1 | -21% | -18%
COc1ccc(C(=O)NCCn2ccc3ccccc32)c(OC)c1 | -14% | -2%
CCCC1Cc2c(sc3ncnc(N)c23)CO1 (stereo not drawn) | -9% | -4%
O=C(NCc1ccc(Cl)cc1)C1CCCN(C(=O)c2cnn(-c3ccc(F)cc3)c2-n2cccc2)C1 (stereo not drawn) | ? | ?
Cc1c(NC(=O)c2cc(-c3ccc(F)cc3)nc3ccccc23)c(=O)n(-c2ccccc2)n1C | i | -13%
Cc1nc(C)c(-c2csc(NCc3ccccc3)n2)s1 | i | -22%
C[C@@H]1[C@H](c2ccccc2)OCCS(=O)(=O)N1Cc1ccc(F)cc1 | i | -22%
COc1ccccc1C(=O)Nc1cccc(C(=O)OCc2cc(=O)n3c4c(sc3n2)CCCC4)c1 | -21% | -22%
CCOC1=C2[C@@H](CN(S(=O)(=O)c3ccc(C)cc3)[C@H]2c2ccccc2Cl)[C@H]2C(=O)N(C(C)(C)C)C(=O)[C@H]2C1 | 7% | -12%
Cc1cccc(N(C)S(=O)(=O)c2csc(C(N)=O)c2)c1 | -8% | -4%
COCCNCC(=O)Nc1nc(C)cs1 | -8% | 2%
COc1ccc(C2C(C(=O)NCc3ccco3)CCC(=O)N2c2ccc(OC)cc2)cc1 (stereo not drawn) | -6% | -2%
CCn1c(-c2cc(-c3ccc(C)cc3)nc3ccccc23)n[nH]c1=S | -4% | -15%
COc1cccc(NC(=O)c2ccccc2-c2ccccc2C(=O)O)c1 | i | 7%
COc1cccc(/C=N/NC(=O)C(=O)NCc2ccco2)c1OC | -6% | -8%
COc1ccc2oc(=O)c(C(=O)NCc3ccc(F)cc3)cc2c1 | -11% | -5%
O=[N+]([O-])c1cc(Br)ccc1NS(=O)(=O)c1ccccc1 | i | 10%
CN1CCN(CCCCC(=O)c2ccccc2)CC1 | nt | 17%
CCCCN(C1CCS(=O)(=O)C1)S(=O)(=O)c1ccc(OC)c(OC)c1 (stereo not drawn) | -16% | -8%
CC(C)(C)c1ccc(C(=O)NC(=O)COC(=O)c2ccc(Br)o2)cc1 | i | -4%
O=C(Nc1nnc(CCc2ccccc2)s1)c1ccco1 | 11% | 0%
Cc1ccc(-n2ncc(C(=O)N3CCN(c4ccccn4)CC3)c2C2CCN(C(=O)OC(C)(C)C)CC2)cc1C | -1% | 1%
O=C(Nc1ccccc1C(=O)N1CCN(Cc2ccccc2)CC1)c1ccc(F)cc1 | -14% | -8%
N/C(=N\OC(=O)COc1ccc([N+](=O)[O-])cc1)c1cccnc1 | 1% | -1%
CC(=O)c1ccc(NC(=O)CCOc2cc(C)ccc2C)cc1 | -10% | 3%
O=C(NCC(c1ccco1)N1CCCCC1)c1ccc(OCc2ccccc2)cc1 (stereo not drawn) | -17% | -8%

Laid out differently: results already given.
CCCCN(C1CCS(=O)(=O)C1)S(=O)(=O)c1ccc(OC)c(OC)c1 (stereo not drawn)
  Vaccinia mCherry = -16%; VACV Venus inh = -8%

CC(C)(C)c1ccc(C(=O)NC(=O)COC(=O)c2ccc(Br)o2)cc1
  Vaccinia mCherry = i; VACV Venus inh = -4%

O=C(Nc1nnc(CCc2ccccc2)s1)c1ccco1
  Vaccinia mCherry = 11%; VACV Venus inh = 0%

Cc1ccc(-n2ncc(C(=O)N3CCN(c4ccccn4)CC3)c2C2CCN(C(=O)OC(C)(C)C)CC2)cc1C
  Vaccinia mCherry = -1%; VACV Venus inh = 1%

Further structures.
SMILES | Vaccinia mCherry | VACV Venus inh
CCn1ncc(N2CCOCC2)c(Cl)c1=O | -16% | -7%
Cc1ccccc1N=C1c2ccccc2C(=O)C1[N+](=O)[O-] (stereo not drawn) | -20% | -9%
Cc1cc(N)nc2nc(C(F)(F)F)nn12 | 0% | -6%
COc1ccc(/C=N/NC(=O)/C(=C/c2ccccc2)CCO)cc1 | i | -9%
COc1ccc(CC(=O)Nc2ccc(C(N)=O)cc2)cc1 | i | -6%
O=C(COC(=O)c1cc(Cl)ccc1O)NCC1CCCO1 (stereo not drawn) | -17% | 3%
OCCNCc1cc(Br)ccc1OCc1ccccc1Cl | -1% | -22%
COc1ccc(Cc2c(O)[nH]c(=O)[nH]c2=O)c(OC)c1 | -14% | -4%
O=C(Nc1ccnn1C1CCN(Cc2cccc(F)c2F)CC1)C1CCCC1 | i | -17%
O=C(Cn1cc(S(=O)(=O)c2ccccc2)c(=O)c2cc3c(cc21)OCO3)Nc1ccc(Cl)cc1 | -5% | -6%
COc1ccc(C(=O)NC(CO)c2nnc(SCc3ccc(Cl)c(Cl)c3)n2C)cc1 (stereo not drawn) | ? | -11%
CSc1ncccc1C(=O)Nc1nccs1 | -12% | -9%
Cc1ccc(NC2OC(C(O)CO)C(O)C2O)cc1[N+](=O)[O-] (stereo not drawn) | -21% | -11%
COc1ccc(Cc2nc3ccc(C(=O)N(C)C(C)c4ccon4)cc3o2)cc1 (stereo not drawn) | -23% | -15%
COc1ccccc1-c1nnc(SCC(=O)N2CC(C)CC(C)C2)o1 (stereo not drawn) | nt | -12%
COc1ccc(/C=C/C(=O)NC(=S)Nc2ccc(S(N)(=O)=O)cc2)cc1 | -6% | -5%
O=C(N/N=C(\CC(=O)c1cccs1)C(F)(F)F)c1ccncc1 | ? | 14%
O=C(/C=C/c1ccco1)OCC(=O)N1CCCCC1 | -20% | -12%
CNC(=O)c1cc2c(cn1)[nH]c1ccccc12 | -15%&-4%&34% | 1%&4%&10%
COc1ccc(C(=O)CN2C(=O)C(C)(C)Oc3ccc(C(=O)N4CCCCCC4)cc32)cc1 | -11% | -19%
COC(=O)c1ccc(COc2ccc(-c3nnn(CC(=O)NC(C)(C)C)n3)cc2)cc1 | -15% | -13%
COc1ccc(S(=O)(=O)N2CCN(c3cnccn3)CC2)cc1 | -12% | -6%
COc1ccc(NC(=O)CCS(=O)(=O)c2cc3c(cc2C)NC(=O)CO3)cc1 | 12% | -1%
COc1ccc(-n2nc3cc(C)c(NC(=O)COc4cccc(C)c4)cc3n2)cc1 | -1% | 1%
COC(=O)COc1ccc(-c2nccc(-c3ccc(Br)cc3)n2)cc1 | i | -4%

One compound at a time, as listed above. Order of screens: Vaccinia mCherry, VACV Venus inh
COC(=O)c1ccc(COc2ccc(-c3nnn(CC(=O)NC(C)(C)C)n3)cc2)cc1 across the screens: -15%, -13%
COC(=O)COc1ccc(-c2nccc(-c3ccc(Br)cc3)n2)cc1 across the screens: i, -4%
COc1ccc(NC(=O)CCS(=O)(=O)c2cc3c(cc2C)NC(=O)CO3)cc1 across the screens: 12%, -1%
COc1ccc(/C=C/C(=O)NC(=S)Nc2ccc(S(N)(=O)=O)cc2)cc1 across the screens: -6%, -5%
COc1ccc(-n2nc3cc(C)c(NC(=O)COc4cccc(C)c4)cc3n2)cc1 across the screens: -1%, 1%

An unsorted share of the library; any-hit rate near 0.88%.
